RanGTP-Imp inh = disruptors of Ran-importin-beta complex formation – biochemical, FRET, CFP-Ran, YFP-importin-beta, homogeneous, primary screen | AID 2216 | cell-free CFP-Ran/YFP-importin-beta FRET ratio | inhibition, % (no concentration beside the values) | 300,000 compounds, 1.1% hits;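 active means most replicates above 15%; inconclusive means exactly half above 15%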;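 further: 0% = DMSO wells and 100% = Ran loaded with GDP instead of GTP; wells of about 40 µL received 100 nL stock; the first replicate is given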
Calb FLC = C. albicans growth modulation with fluconazole. 300,000 compounds, 0.57% hits. C. albicans CaCi-2 (fluconazole-resistant clinical isolate) + fluconazole, Alamar Blue growth, 48 h. growth inhibition, % (test concentration not listed);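 active means most replicates above 75%; inconclusive means exactly half above 75%; inactive means most below 75%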;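 further: all wells also contain fluconazole at 8 µg/ml as a sub-toxic cotreatment; 0% = median of DMSO wells and 100% = median of geldanamycin control wells; wells of about 8 µL received 7.5 nL stock; the first replicate is given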
B2AR ag = agonists of human beta-2 adrenergic receptor inducing internalization; P07550; Am2.2-beta2AR cells, FAP receptor internalization, flow cytometry; reference of the scale not given here; response, % (no concentration beside the values); 340,000 compounds, 0.43% hits; AID 504454;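 active means response above a set limit, near 3 SD of response in nonfluorescent compounds, cut at about 42% in these data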;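 further: stock transfer was 100 nL into about 11 µL; a reference agonist was the positive control; negative values mostly stem from fluorescent compounds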
Target sequence (P07550 whole entry, looked up): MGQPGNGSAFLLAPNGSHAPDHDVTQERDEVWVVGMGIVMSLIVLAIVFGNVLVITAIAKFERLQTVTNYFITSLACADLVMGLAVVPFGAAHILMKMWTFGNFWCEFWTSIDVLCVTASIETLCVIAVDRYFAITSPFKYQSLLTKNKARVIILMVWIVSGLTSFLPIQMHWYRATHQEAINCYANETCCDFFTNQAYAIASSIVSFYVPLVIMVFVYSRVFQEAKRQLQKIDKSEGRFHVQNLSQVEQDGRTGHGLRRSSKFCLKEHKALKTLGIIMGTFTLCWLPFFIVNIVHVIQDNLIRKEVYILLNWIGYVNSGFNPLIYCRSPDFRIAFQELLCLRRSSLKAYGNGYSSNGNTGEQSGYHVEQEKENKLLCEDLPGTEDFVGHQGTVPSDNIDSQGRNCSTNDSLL
Vif A3G = HIV-1 Vif–A3G interaction blockers – biochemical, TR-FRET, GST-Vif 1-94, biotin-A3G peptide, dose response retest, primary screen (AID 1117319); inhibition, %, or IC50 in µM where a hit was titrated; TR-FRET GST-Vif / biotin-A3G peptide binding; higher % means a stronger effect; test concentration not given here; strong numbers were not always called active; 260,000 compounds, 0.57% hits;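 active means above the screen mean plus three standard deviations and confirmed in dose response; inconclusive means results disagree or hit not tested in dose response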;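 further: Vif residues 1-94 fused to GST binding biotinylated APOBEC3G peptide 110-148; 0% = full assay without inhibitor and 100% = GST in place of GST-Vif; retest series ran down from 100 µM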
ALR inh = human ALR oxidase inhibition via reduced H2O2; P55789; purified ALR, DTT oxidation, H2O2 HRP-luminol luminescence; 290,000 compounds, 3.8% hits; inhibition, % (test concentration not listed);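 active means mean and each replicate at 75% or more; inconclusive means only one of the two met; inactive means neither met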;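 further: stock transfer was 7.5 nL into about 7.5 µL; 0% = neutral wells and 100% = wells with inactivated enzyme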
Target sequence (P55789 whole entry, looked up): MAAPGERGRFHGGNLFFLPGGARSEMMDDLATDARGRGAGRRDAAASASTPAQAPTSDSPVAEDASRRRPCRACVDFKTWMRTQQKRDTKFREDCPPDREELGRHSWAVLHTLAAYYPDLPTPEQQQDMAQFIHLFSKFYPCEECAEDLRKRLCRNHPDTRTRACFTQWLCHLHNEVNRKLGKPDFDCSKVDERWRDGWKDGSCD
HNF4A DNA FP = change in binding of human HNF4 alpha to DNA | HNF4a-FITC DNA binding, fluorescence polarization, 1 h | activity change, % at 10 µM | 360,000 compounds, 0.3% hits | AID 1224865; in the data active means activity change above about 30%, passing the limit was not always enough;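 further: controls were the assay level and a saturating level of protein; the project sought stronger binding though the title names inhibitors; some compounds called inactive have numbers as strong as hits; positive values seem to mean higher polarization but the record does not say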
Target sequence (P41235 whole entry, looked up): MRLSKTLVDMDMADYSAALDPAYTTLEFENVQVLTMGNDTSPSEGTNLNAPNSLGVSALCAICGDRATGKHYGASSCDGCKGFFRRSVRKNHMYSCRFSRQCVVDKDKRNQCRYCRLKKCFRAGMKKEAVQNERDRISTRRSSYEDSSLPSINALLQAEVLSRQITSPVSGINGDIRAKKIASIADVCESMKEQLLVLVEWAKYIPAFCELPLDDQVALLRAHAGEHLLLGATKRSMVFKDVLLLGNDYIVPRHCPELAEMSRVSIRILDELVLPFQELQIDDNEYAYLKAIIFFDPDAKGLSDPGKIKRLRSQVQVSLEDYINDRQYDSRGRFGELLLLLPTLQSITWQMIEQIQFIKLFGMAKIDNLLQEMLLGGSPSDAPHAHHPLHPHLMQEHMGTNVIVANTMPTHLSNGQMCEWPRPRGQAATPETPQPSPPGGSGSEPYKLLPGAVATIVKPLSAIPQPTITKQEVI
LANA-H2B inh = blocks KSHV LANA binding to histone H2A/H2B. AID 2629. inhibition, % (test concentration not listed). cell-free LANA-H2A/H2B peptide, fluorescence polarization. 320,000 compounds, 0.6% hits. Q9QR71; in the data active means inhibition mostly above about 10%, no sharp cut-off; inactive means mostly below about 6.7%;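 further: stock transfer was 7.5 nL into about 10 µL; 0% = median of vehicle wells and 100% = median of positive control wells; one replicate is shown; the record names a cut of 25% in any replicate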
* marks the source's active call; other numbers are inactive results; ? = inconclusive; nt = not tested or not shown; & = joins results of further samples.

Compound	RanGTP-Imp inh	Calb FLC	B2AR ag	Vif A3G	ALR inh	HNF4A DNA FP	LANA-H2B inh
COc1ccc(Cl)cc1C(=O)Nc1ccc(OCC(=O)N2CCOCC2)cc1	5.2	14	-2	nt	-8	-2.4	-8.4
N=c1c2c(-c3ccccc3)c(-c3ccccc3)n(Cc3ccco3)c2ncn1Cc1ccccc1	7.8	8	3	4%	-8	1.7	1.9
COc1cccc(/C=N/NC(=O)C(=O)N2CCCC2)c1	-1.0	-7	2	nt	-2	-4.2	-3.7
O=C(NC1CCCC1)C1CCC(CNS(=O)(=O)c2ccccc2)CC1 (stereo not given)	-0.3	-7	-2	-7%	-9	0.3	-2.6
CCOC(=O)C1CCCN(C(=O)c2cn(C)c3ccc(S(=O)(=O)N4CCCC4)cc3c2=O)C1 (stereo not given)	nt	nt	5	-6%	-6	4.2	9.1
CNc1nc(-c2cccs2)cc(C(F)(F)F)c1C#N	109*	-18	3	0%	6	0.2	0.6
Cc1c(OCC(=O)NCC2CCC(C(=O)O)CC2)ccc2c(-c3ccccc3)cc(=O)oc12 (stereo not given)	14	-11	-3	nt	0	-2.8	0.8
O=C(OCc1nc2ccccc2s1)c1ccccc1O	3.8	?	8	-2%	-2	-3.5	2.6
CC1CCCCC12NC(=O)N(CC(=O)Nc1ccc(S(=O)(=O)N3CCOCC3)cc1)C2=O (stereo not given)	-1.2	-3	3	7%	-3	6.1	7.1
CN1CCN(Cc2coc3c(Cl)cc(Cl)cc3c2=O)CC1	7.4	7	2	-3%	nt	-1.4	-5.9
CCn1c(-c2cc3c(C(F)(F)F)nn(C)c3s2)n[nH]c1=S	-0.6	34	5	-1%	58	3.2	0.6
Cc1ccsc1/C=N/NS(=O)(=O)c1ccc([N+](=O)[O-])cc1	-6.4	101*	-4	-5%	nt	-2.3	-3.1
CCOC(=O)c1cc(-c2ccccc2)sc1NC(=O)COC	-3.0	-17	-3	-3%	nt	1.7	-2.5
CCc1cccc(NC(=O)CCNS(=O)(=O)c2cccc3nonc23)c1	-4.6	5	3	9%	-2	-2.4	1.1
N#CCCN(Cc1cccnc1)S(=O)(=O)c1ccc(S(=O)(=O)N2CCCCCC2)cc1	0.4	-3	3	-1%&-4%	1	4.7	2.2
COc1cccc(N2CCN(S(=O)(=O)c3ccc(-n4cnnn4)cc3)CC2)c1	-0.3	1	-7	nt	0	-4.1	-2.3
COc1cccc(/C=C2/SC(=S)N(CC(=O)NNC(=O)c3ccccc3O)C2=O)c1	3.3	-24	3	nt	nt	-0.8	5.5
CC1CCC(C(C)C)C(OCC(O)CNC(C)c2ccccc2)C1 (stereo not given)	?	-11	18	-2%	-58	6.2	0.4
CC(=O)Nc1ccc(NC(=O)C2CCN(c3ccc(C(F)(F)F)cn3)CC2)cc1	5.4	-48	3	7%	-4	2.7	6.6
O=C(CN1CCC(n2nnc3cc(F)ccc32)CC1)Nc1ccc2c(c1)CCC2	nt	nt	-6	?	-5	7.7	-3.1
O=C(c1ccco1)N1CCN(Cc2nc3ccccc3[nH]2)CC1	nt	nt	-6	nt	-7	4.9	3.0
CCN1CCN(CCCNC(=O)c2cc3c(=O)oc4ccc(C)cc4c3s2)CC1	-1.1	6	4	nt	-14	2.0	-0.1
CC(C)CC(=O)NC(=S)Nc1ccccc1C(F)(F)F	-4.0	-1	29	nt	0	0.6	-0.5
O=C(Nc1ccc(Cl)cc1)c1nc[nH]c1C(=O)NCCN(CCNC(=O)c1[nH]cnc1C(=O)Nc1ccc(Cl)cc1)CCNC(=O)c1[nH]cnc1C(=O)Nc1ccc(Cl)cc1	nt	nt	-6	nt	4	1.1	6.1
CC(=O)Nc1ccccc1C(=O)C(=O)Nc1ccc(C(=O)N2CCOCC2)cc1	0.7	9	-1	23%	nt	0.0	-3.4
O=S(Cc1ccc(Br)cc1)Cc1nnc(SCc2c(Cl)cccc2Cl)n1-c1ccccc1 (stereo not given)	-5.5	?	2	0%&-2%	-19	-2.5	-9.7
O=C(c1cnccn1)N(Cc1cccs1)C1(C(=O)NC2CCCCC2)CCCCC1	1.3	-10	-56	-1%	5	-0.5	2.9
O=C(CSc1nc2nccnc2c(=O)n1Cc1cccs1)Nc1ccccc1	1.3	3	1	9%	98*	2.8	0.2
OCCCN=C1CCCc2c1[nH]c1ccc(Cl)cc21	9.6	-17	-3	-6%	-6	0.6	1.2
O=C(CSc1nc2ccccc2c(=O)n1-c1ccccc1)c1cccc([N+](=O)[O-])c1	0.3	-5	0	nt	-2	5.1	-2.4
O=C(Nc1cc(C(F)(F)F)ccc1N1CCOCC1)c1cnccn1	7.9	7	-10	-4%	-2	-0.7	-1.5
O=C(Nc1cc(Br)ccc1O)C1CC(c2ccccc2Cl)=NO1 (stereo not given)	1.8	-1	16	nt	11	-3.3	-2.5
O=C(O)CCNc1ccc(NCCC(=O)O)c2c1C(=O)c1ccccc1C2=O	3.1	3	16	nt	99*	-76	0.1
Cc1cc(NC(=O)c2ccccc2-c2ccccc2)ccc1Br	2.7	1	-15	nt	nt	5.5	nt
CCCNC(=S)Nc1ccccc1	-6.8	0	1	0%	90*	0.4	-1.0
O=S(=O)(NC1CC1)c1ccc(F)c(F)c1	0.7	2	-2	nt	1	3.2	0.0
CCN1CCN(S(=O)(=O)c2ccc(C(C)(C)C)cc2)CC1	-4.8	-2	1	nt	nt	1.7	13*
Cc1ccc(-c2csc3nc(SCC(N)=O)n(Cc4ccccc4)c(=O)c23)cc1	-1.1	22	0	7%	-2	3.5	-1.3
COc1ccc(S(=O)(=O)N(C)C[C@H]2Oc3ccc(NC(=O)Nc4c(C)noc4C)cc3C(=O)N([C@H](C)CO)C[C@@H]2C)cc1	nt	nt	0	nt	-5	1.4	0.0
COC(=O)CCCC(=O)Nc1ccc(Br)cc1	0.7	-9	4	4%	nt	-1.6	-1.8
COC(=O)C1=C(C)N(Cc2ccc(OC)cc2)C(=O)/C1=C\c1ccco1	-0.6	6	-11	nt	nt	0.8	-2.9
C=CCOc1ccc(CNc2ccc3[nH]c(=O)[nH]c3c2)cc1OC	nt	nt	-3	30%	nt	2.1	nt
COCCn1c(SCC(=O)Nc2sc(C)c(C)c2C#N)nnc1C(C)C	-2.4	-17	0	3%	43	-1.9	-8.6
CCOC(=O)C1CCN(C(=O)CC2C(=O)N(Cc3ccccc3)C(C)c3nc4ccccc4n32)CC1 (stereo not given)	2.1	-1	0	8%&5%	-3	5.2	-1.4
Cc1ccc(NC(=O)c2ccc(NS(=O)(=O)c3ccc4[nH]c(=O)[nH]c4c3)cc2)nc1	1.4	6	2	-5%	40	-0.5	8.0
Cc1c(Cl)cccc1NC(=O)NC1CCCCC1	7.7	-3	-6	-3%	3	0.0	-0.1
CCCOc1ccc(CCc2n[nH]c(=S)n2Cc2ccccc2)cc1	2.9	-15	-7	-6%	nt	-1.5	-1.7
CCN(CC)S(=O)(=O)c1ccc(NC(=O)CN(c2ccc(OC)cc2OC)S(C)(=O)=O)cc1	1.7	31	2	-2%	-20	-0.1	1.8
Cc1ccc2[nH]c(=O)c(COC(=O)C3CCCO3)cc2c1 (stereo not given)	4.8	-6	11	?	0	-1.7	1.9
O=C(CCN1CCOCC1)NC12CC3CC(CC(C3)C1)C2	4.4	6	-1	0%	nt	0.6	0.1
CCOC(=O)Cc1c[nH]c2ccc([N+](=O)[O-])cc12	nt	nt	10	-3%	nt	2.8	nt
O=c1c(-c2ccc(O)cc2)coc2cc(O)cc(O)c12	2.2	4	1	nt	57	0.3	1.9
CC[n+]1c(/C=C2/C=C(C)CC(C)(C)C2)sc2ccc(OC)cc21	6.0	15	5	22µM*	?	9.9	1.4
COc1cccc(NC(=O)CSc2nc3c(c(=O)n2C)SC(C)C3)c1 (stereo not given)	2.3	4	-17	4%	99*	0.9	4.6
CC1CCCCN1C(=O)CSc1nnc(Cc2ccccc2)n1C (stereo not given)	-2.6	0	0	?	-5	2.4	2.8
CCn1cc(C(=O)N2CCCC2)c(=O)c2cc(S(=O)(=O)N(C)C)ccc21	-2.0	5	2	-1%	nt	0.5	0.5
Cc1cc(SC#N)cc(C)c1NC(=O)CCl	1.1	-9	35	17%	?	-3.9	0.9
COc1ccc(S(=O)(=O)N2CCC(N3CCN(Cc4ccccc4)CC3)CC2)cc1	0.2	-3	-11	25%	4	-6.3	2.2
CC(OC(=O)CC1CCCCC1)C(=O)Nc1ccc(F)cc1 (stereo not given)	1.3	-1	-7	-10%	-2	2.4	-1.2
COC(=O)CCc1c(C)c(C(=O)c2ccco2)c2ccccn12	2.8	2	-3	?	23	3.1	-1.5

Continuation.
Compound	RanGTP-Imp inh	Calb FLC	B2AR ag	Vif A3G	ALR inh	HNF4A DNA FP	LANA-H2B inh
Cn1c(SCc2nnc(-c3ccccc3)o2)nc2ccccc21	?	-27	-9	-6%	-18	3.5	2.7
CCOC(=O)C(CC)Sc1ccc2nnc(-c3cccnc3)n2n1 (stereo not given)	2.5	2	0	0%	-1	-0.2	1.4
COc1ccc(C2CC(c3ccccc3)=NN2C(=O)COC(=O)c2cnc(Cl)c(Cl)c2)cc1 (stereo not given)	-2.6	1	24	nt	nt	1.3	3.0
CC(C)CC(C(=O)NCc1ccccn1)N1C(=O)c2ccccc2C1=O (stereo not given)	-1.0	-8	-1	4%	-3	-1.3	0.8
NS(=O)(=O)c1ccc(NC(=S)N2CCN(S(=O)(=O)c3ccc(F)cc3)CC2)cc1	-3.5	-3	nt	-7%	4	nt	-1.5
O=C1c2ccccc2C(=O)N1CCC1(O)C(c2ccccc2)=Nc2ccccc21 (stereo not given)	nt	nt	2	-5%	nt	9.2	nt
O=C(CC(Nc1ccccc1Cl)C(=O)OCC(=O)c1cccs1)c1ccccc1 (stereo not given)	5.5	15	0	0%	27	-0.9	2.5
Clc1cccc(CN2CCc3c([nH]c4ccccc34)C2)c1	1.3	0	21	nt	1	-1.4	3.8
CC(=O)N1CCc2c(sc(NC(=O)c3ccc(S(=O)(=O)N(C)C)cc3)c2C#N)C1	2.2	-1	4	nt	nt	7.3	-0.7
O=C(C1=C(O)C(=O)N(c2ncccn2)C1c1cccs1)c1ccco1 (stereo not given)	-3.6	0	4	?	22	-11	0.1
CCO[C@@H]1OC(C(=O)Nc2ccccc2)=C[C@H](c2coc3ccccc3c2=O)[C@H]1CCCO	2.3	73	-23	nt	-5	3.7	-3.6
O=S(=O)(c1ccc(Oc2ccccc2)cc1)N1CCOCC1	-2.0	7	-6	-4%	-4	-0.9	-0.7
Cc1ccc(/C=N/NC(=O)C[n+]2ccccc2)s1	-0.6	5	-6	-1%	nt	1.0	0.3
C/C(=N/N1CCN(Cc2cccc3ccccc23)CC1)c1cccnc1	1.1	-5	4	-6%	-8	0.0	6.9
CC[C@H](C)[C@@H](CN[C@H](CCCCNC)CNC)NCC1CCCC1	-3.9	1	1	nt	-2	0.8	2.7
O=C(CCN1C(=O)c2ccccc2C1=O)N1CCC(c2ccccc2)C1 (stereo not given)	4.8	13	-4	-1%	-4	1.6	0.3
COc1ccc(C(=O)OCCN=C2NS(=O)(=O)c3ccccc32)cc1OC	0.1	12	9	1%	2	1.8	4.7
Fc1c(CSC(=S)N2CCOCC2)cccc1CSC(=S)N1CCOCC1	8.2	-7	-7	28%	-11	-1.1	4.1
Cc1cc([N+](=O)[O-])nn1Cc1ccc(C(=O)N/N=C/c2ccc(N(C)C)cc2)cc1	-0.8	6	6	-6%	18	-0.5	0.0
ON(CCc1ccccn1)CCc1ccccn1	nt	nt	6	-8%	nt	-16	nt

Compound activity deposited in PubChem BioAssay by several laboratories.
